Screens deposited in PubChem by several laboratories.
CSC inhib: cancer stem cell viability inhibitors, primary screen, luminescence; cancer stem cell-like cells viability; inhibition, % at 7.5 µM; 1.1% of 300,000 active; AID 2717, 2010;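 active = mean at 75% or more and at least half the replicates too; inconclusive = mean and replicates disagree; tested in HMLE shEcad cells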;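 note: 0% = median of negative and 100% = median of positive control wells; the first replicate is given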
Rce1 inh: yeast Rce1p protease inhibitors, primary screen, biochemical, fluorescence, cell-free homogeneous | yeast membranes, quenched prenylated peptide cleavage fluorescence | calls only | AID 2563, 2010 | CAAX prenyl protease 2 (Saccharomyces cerevisiae (strain ATCC 204508 / S288c)), Q03530 | 0.27% of 290,000 active;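 active = fall in fluorescence gain of 50% or more versus controls, with final raw signal at or below 3038400; inconclusive = same 50% fall but final raw signal above 3038400; inactive = fall in fluorescence gain under 50%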;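 note: plate controls were neutral control wells for no effect and wells lacking membranes for full effect; tested at 10 µM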
Target sequence (Q03530 whole entry, looked up): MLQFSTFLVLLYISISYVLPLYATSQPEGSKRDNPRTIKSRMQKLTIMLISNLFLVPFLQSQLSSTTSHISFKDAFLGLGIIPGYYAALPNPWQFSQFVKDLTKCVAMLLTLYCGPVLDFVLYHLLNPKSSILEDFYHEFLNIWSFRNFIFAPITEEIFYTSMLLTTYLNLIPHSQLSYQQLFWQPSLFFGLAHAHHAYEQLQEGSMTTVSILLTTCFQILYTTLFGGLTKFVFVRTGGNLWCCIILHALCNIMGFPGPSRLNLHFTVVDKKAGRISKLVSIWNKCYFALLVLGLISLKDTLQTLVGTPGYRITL
eIF4H inh: human eIF4H binding inhibitors, primary screen, translation initiation inhibitor project, biochemical, uHTS, fluorescence polarization; Eukaryotic translation initiation factor 4H (Homo sapiens), Q15056; eIF4H fluorescence polarization binding assay; inhibition, % at 35 µM; 0.94% of 290,000 active;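 active = 50% or more with normal probe brightness, or confirmed in later tests; inconclusive = above 50% with abnormal brightness, or retests that disagree; inactive = below 50% or failed in later tests; about a fifth of its hits are not listed in these tables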;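 note: calls also rest on retests at 20 µM and on dose response follow-up; 0% = protein and probe with vehicle and 100% = probe without protein; strong numbers were not always called active; many hits fall short of the cut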
PABP polyA inh: PABP poly(A) RNA binding inhibitors, primary screen, biochemical, fluorescence polarization, uHTS. Polyadenylate-binding protein 1 (Homo sapiens), P11940. inhibition, % at 35 µM. 1% of 290,000 active;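 active = 50% or more with normal probe brightness, or confirmed in later tests; inconclusive = above 50% with abnormal brightness, or retests that disagree; inactive = below 50% or failed in later tests; about a fifth of its hits are not listed in these tables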;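 note: calls also rest on retests at 20 µM and on dose response follow-up; controls were probe without protein and protein plus probe with vehicle; some compounds called inactive have numbers as strong as hits; many hits fall short of the cut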
Target sequence (P11940 whole entry, looked up): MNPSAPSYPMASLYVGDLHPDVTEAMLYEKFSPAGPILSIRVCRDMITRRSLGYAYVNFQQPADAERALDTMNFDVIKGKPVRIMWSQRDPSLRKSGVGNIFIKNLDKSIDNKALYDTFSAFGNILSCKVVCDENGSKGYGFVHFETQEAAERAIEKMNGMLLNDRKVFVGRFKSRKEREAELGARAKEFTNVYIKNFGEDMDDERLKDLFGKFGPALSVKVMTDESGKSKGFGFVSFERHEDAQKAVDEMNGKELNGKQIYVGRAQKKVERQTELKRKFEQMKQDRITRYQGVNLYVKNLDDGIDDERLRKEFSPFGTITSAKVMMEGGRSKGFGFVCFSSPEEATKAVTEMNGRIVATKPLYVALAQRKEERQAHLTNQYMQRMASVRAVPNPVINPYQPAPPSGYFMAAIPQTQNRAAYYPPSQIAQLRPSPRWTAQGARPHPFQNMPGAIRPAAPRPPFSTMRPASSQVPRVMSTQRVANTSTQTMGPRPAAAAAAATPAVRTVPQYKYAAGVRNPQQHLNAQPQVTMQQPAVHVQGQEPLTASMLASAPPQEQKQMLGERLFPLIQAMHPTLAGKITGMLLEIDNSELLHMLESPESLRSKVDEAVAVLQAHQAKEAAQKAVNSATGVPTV
HIV Env fusion: inhibitors of HIV-1 Env-driven cell-cell fusion, primary screen, HeLa-JRFL effector, CEM21 target cells, luciferase | inhibition, % at 12.3 µM | 1.1% of 360,000 active;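 active = mean replicate inhibition score of at least 50 and every replicate individually at or above 50; inconclusive = only one of the two criteria met; inactive = mean below 50 and not all replicates reaching 50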;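 note: 0% = plate neutral controls and 100% = maraviroc near 300 nM; one replicate is shown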
UUG fidelity: modulators of yeast start codon fidelity, primary screen, whole organism, S. cerevisiae, single point, plate reader; S. cerevisiae UUG-firefly luciferase reporter, luminescence/redox ratio; 0.13% of 350,000 active; activity score, % at 18.7 µM;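 active = replicate mean at a twofold rise or more, about +100% in these data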;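 note: firefly luciferase made from a UUG start codon reports start codon fidelity; reporter light over untreated wells divided by growth signal over untreated wells; some hits fall short of that in this replicate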
MT1-MMP act inh: blockers of MT1-MMP proenzyme processing, primary screen, HT1080 RFP-PRO-GFP cells, GFP/RFP fluorescence | Matrix metalloproteinase-14 (Homo sapiens), P50281 | GFP/RFP ratio fluorescence, overnight; percent of plate control window, DMSO zero | GFP/RFP ratio change, % at 20 µM | AID 651647, 2012 | 0.061% of 360,000 active;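 active = GFP/RFP ratio change of at least 30% with cell ATP level not reduced by more than half and red fluorescence within 50% of control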; note: strong numbers were not always called active
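Assay system: HT1080 cells carrying an RFP-PRO-GFP reporter | Dosing: Single dose of 20 µM compound, 1% DMSO final | Incubation: Cells overnight before dosing, compound overnight, 37 °C, 5% CO2 | Evaluation: GFP/RFP fluorescence ratio | Control set: DMSO and RFP-L50D-GFP cell wells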
eIF4H inh retest: further read-out of eIF4H inh, marked with its call; inhibition, %; compound at 20 µM; confirmation average;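 mean of two retest wells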
PABP polyA inh retest: also measured in PABP polyA inh; calls as there; inhibition, %; compound at 20 µM; confirmation repeats;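 mean of two retest wells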
MT1-MMP act inh RFP: recorded beside MT1-MMP act inh, whose call it bears; RFP signal change, %; measured here: RFP expression control read;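 0 = vehicle wells; hits needed this value within 50% of zero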
* hit, by the source's call; i = inactive; u = inconclusive; x = not tested or not shown; & = joins results of further samples; [ ] = remark or other dose. Rows are unselected; any-hit rate near 2.9%.

Sample of the layout, 4 compounds:
SMILES	CSC inhib	Rce1 inh	eIF4H inh	PABP polyA inh	HIV Env fusion	UUG fidelity	MT1-MMP act inh	MT1-MMP act inh RFP	others
CCCCCCCNC(=O)C1(CC2CC(c3cccc(Br)c3)=NO2)CCN(C(=O)OC(C)(C)C)CC1 (stereo unspecified)	19	i	-9	9	15	0	-3	-6
Cn1c(=O)c2[nH]c(N=NN3CCCCC3)nc2n(C)c1=O	x	x	x	x	-141	-14	-1	-2
O=C(NN=Cc1ccc2c(c1)CCC2)c1cccc([N+](=O)[O-])c1	x	x	x	x	-12	-19	0	1
Cc1c(NC(=O)c2coc(=O)c(Br)c2)c(=O)n(-c2ccccc2)n1C	x	i	9	11	x	x	4	2

This part in full, previewed entries included:
SMILES	CSC inhib	Rce1 inh	eIF4H inh	PABP polyA inh	HIV Env fusion	UUG fidelity	MT1-MMP act inh	MT1-MMP act inh RFP	others
CCCCCCCNC(=O)C1(CC2CC(c3cccc(Br)c3)=NO2)CCN(C(=O)OC(C)(C)C)CC1 (stereo unspecified)	19	i	-9	9	15	0	-3	-6
Cn1c(=O)c2[nH]c(N=NN3CCCCC3)nc2n(C)c1=O	x	x	x	x	-141	-14	-1	-2
O=C(NN=Cc1ccc2c(c1)CCC2)c1cccc([N+](=O)[O-])c1	x	x	x	x	-12	-19	0	1
Cc1c(NC(=O)c2coc(=O)c(Br)c2)c(=O)n(-c2ccccc2)n1C	x	i	9	11	x	x	4	2
C=CCn1c(Cc2csc(N)n2)nnc1SCc1ccc(C(=O)OC)cc1	-8	i	3	6	x	-31	3	3
Nc1cc(=O)[nH]c(SCc2ccccc2Cl)n1	6	i	-4	-1	7	-3	0	-2
Cn1cccc1C(=O)N1CCc2ccccc2C1	-4	i	-2	9	-5	-7	-2	2
Cc1cccc(C(=O)OCC(=O)NCCN2C(=O)CSC2=O)c1[N+](=O)[O-]	-19	x	x	x	-10	-4	0	0
Cc1ccc(SCC(=O)NNC(=O)CNC(=O)c2ccccc2F)cc1	-5	x	x	x	10	-10	-4	3
CCCC(=O)Nc1ccc(C(=O)N/N=C/c2ccc[nH]2)cc1	110*	i	22	-3	66*	x	-44	-33
CCN(CC)c1ccc(CNc2nc3ccccc3n2CCN2CCOCC2)cc1	-5	i	-9	68	44	0	1	1	eIF4H inh retest=6;PABP polyA inh retest=1
CCn1c(=O)c(C(=O)Nc2ccccc2F)c(O)c2ccccc21	-9	i	3	5	-27	-9	-3	-6
CC(C)C[C@H](NC(=O)c1nc[nH]c1C(=O)NCCCCCNC(=O)OC(C)(C)C)C(=O)OC(C)(C)C	3	i	-4	-13	17	-7	-11	-16
COC(=O)CC(=O)CSc1nc2c(cc1C#N)CCC2	x	i	16	19	x	-22	-6	0
O=C(Nc1ccc(N2CCOCC2)cc1)c1cn2ccccc2n1	-22	i	8	-2	x	-36	4	1
OCC1(Cc2ccccc2C(F)(F)F)CCN(Cc2cccc3cnccc23)CC1	10	i	-15	-2	12	-11	6	-4
COc1cccc(C(=O)N2CCC(C(=O)NCc3ccco3)CC2)c1	-18	i	0	-7	-30	-11	1	0
Cc1cccc(NC(=S)N/N=C/c2ccc(Cl)c([N+](=O)[O-])c2)c1	4	i	-5	-2	35	-19	2	2
Cc1nn(C)c(C)c1S(=O)(=O)N(CC(=O)N1CCc2ccccc21)c1ccc(C(C)C)cc1	-3	i	-5	-4	34	-12	-2	-8
NC(=O)c1c(NC(=O)c2ccccc2)sc2c1CCC2	3	i	-4	11	-125	-2	2	2
Cc1c(NC(=O)C(C)OC(=O)/C=C/c2ccc3c(c2)OCO3)c(=O)n(-c2ccccc2)n1C (stereo unspecified)	-6	i	4	-10	5	x	-2	0
CN(C)S(=O)(=O)c1ccc(-c2cn3ccccc3n2)cc1	-4	u	32	2	-133	-23	10	1
COc1ccc(-c2csc3nc(C)n(-n4cccc4)c(=O)c23)cc1	-2	i	6	-4	x	-12	1	-2
O=S1(=O)CC(N2CCCCC2)C(N2CCCCC2)C1 (stereo unspecified)	0	i	-3	0	x	-17	-1	4
Cc1sc2ncnc(SCC(=O)NC3CC3)c2c1C	x	i	-8	1	-12	-10	1	0
COc1cc(/C=C/C(=O)OCC(=O)N2CCCCCC2)ccc1OCC#N	4	i	16	-8	-7	-1	-6	-1
CCOc1ccccc1NC(=O)c1cc(C(=O)c2cc(Br)ccc2O)coc1=N	-5	i	-7	2	-3	x	0	-10
CCOC(=O)c1cnc2c(C)c(Cl)ccc2c1Nc1ccc(S(=O)(=O)Nc2ncccn2)cc1	x	i	11	-2	x	x	x	x
Nc1nnc(CC(=O)N/N=C/c2ccc(-c3ccc(F)cc3)o2)s1	2	i	-1	-1	-1	-7	1	-2
CCOC(=O)[C@H]1[C@H]2COc3ccc(Cl)cc3[C@@H]2N2C(=O)c3cc(Cl)ccc3NC(=O)[C@@]12C	15	x	x	x	-11	1	-12	-13
COCCCn1c(SCC(=O)c2c(N)n(C3CC3)c(=O)[nH]c2=O)nnc1-c1ccccc1Cl	x	x	x	x	12	18	2	4
COC(=O)c1ccc(NC(=O)Cn2c([N+](=O)[O-])cnc2C)cc1	-9	x	2	5	3	-6	1	-1
O=[N+]([O-])c1cc([N+](=O)[O-])c(Oc2c(F)ccc(F)c2F)cc1NN1CCCCC1	50	i	22	19	5	22	-4	0
CNC(=O)c1[nH]cnc1C(=O)N[C@@H](C)C(=O)OC(C)(C)C	-16	i	-6	4	11	-7	2	7
Cc1ccn(C(=O)c2ccc(NC(=O)C3CC3)cc2)n1	-8	i	6	-3	12	x	-5	-6
c1ccc(Nc2nnc(-c3cccc4ccccc34)o2)cc1	-6	i	-2	-4	-46	-7	0	3
O=C(NCCC(=O)N1CCOCCOCCOCCOCC1)OCc1ccccc1	0	i	6	-5	-2	x	-2	-1
COc1ccc(C(O)c2nc(-c3ccoc3)cs2)cc1 (stereo unspecified)	x	x	x	x	-23	-11	2	1
O=C(c1cccc(NS(=O)(=O)c2ccc(Br)cc2)c1)N1CCN(c2ccccc2O)CC1	x	x	x	x	-40	-7	-5	-2
COc1ccc(Cn2nnnc2CN2CCCCCC2)cc1	2	x	-3	-11	5	x	-3	0
Cn1c(CSc2nc3ccccc3s2)nnc1SCC(=O)NCc1cccnc1	-7	i	x	x	-12	-15	2	3
C[C@@H]1CCCCO[C@H](CN(C)Cc2ccc(C(=O)O)cc2)[C@H](C)CN([C@@H](C)CO)C(=O)c2cc(NC(=O)Nc3ccc(C(F)(F)F)cc3)ccc2O1	x	x	x	x	-3[16.7 µM]	12&-3	6	6
O=C(O)CC1SC(=Nc2ccc(O)cc2)NC1=O (stereo unspecified)	-16	i	0	-11	15	x	2	7
FC(F)(F)c1ccc(CN2C[C@@H]3C(c4ccccc4)C4(c5ccccc5)CC3(C4)[C@H]2c2ccccc2)cc1 (stereo partly specified)	x	i	-10	-11	x	x	x	x
C=CCN1C(=O)c2ccccc2Sc2ccc(C(=O)NC(C)C)cc21	18	i	8	12	-6	0	-4	-1
Cc1ccc(Cl)cc1NC(=O)CSC(N)=O	-17	i	4	-8	x	-14	0	5
O=C(COC(=O)c1ccccc1C(=O)c1ccccc1)Nc1cccc([N+](=O)[O-])c1	-4	i	-15	-5	-8	0	-2	-8
COc1ccc(NS(=O)(=O)c2cccc(C(=O)N3CCN(C/C=C/c4ccccc4)CC3)c2)cc1	x	x	x	x	29	-3	3	-11
CCn1c(C(C)NC(C)=O)nc2ccccc21 (stereo unspecified)	x	i	-3	0	-4	-38	3	3
O=c1[nH]c(C2CCN(S(=O)(=O)c3ccccc3)CC2)nc2c1nnn2Cc1c(F)cccc1Cl	-9	i	-8	0	7	-8	-5	-2
O=C(Nc1ccc(OC(=O)c2ccncc2)cc1)c1ccncc1	-2	i	-10	-2	2	-4	5	8
CCOC(=O)c1cc2c(=O)n3ccccc3nc2n(CCCOC)c1=NC(=O)c1cccnc1	-17	i	10	3	x	x	x	x
CCc1nnc(NC(=O)CSc2nnnn2C)s1	-3	i	-1	8	-15	-1	1	2
CN(CC(=O)Nc1cccc(F)c1)C(=O)CCCn1c(=O)oc2ccccc21	-1	x	x	x	-1	x	-2	0
COc1ccc(-c2cn3cccnc3n2)cc1NC(=O)C(C)Oc1ccccc1 (stereo unspecified)	-6	i	x	x	-16	-3	2	1
COc1ccc(NC(=O)CSc2n[nH]c(-c3ccccc3)n2)cc1S(N)(=O)=O	x	x	x	x	6	-8	7	4
O=C(CSc1nnc(CNC(=O)c2cccs2)o1)NC1CCCCC1	-13	i	1	6	8	-5	5	2
CC(C)N(C(=O)CSc1nnc(C2CC2)n1C1CC1)c1ccccc1	x	x	x	x	-11	-18	1	3
CC(C)(C)c1ccc(OCC(=O)N(Cc2cccs2)C2CCS(=O)(=O)C2)cc1 (stereo unspecified)	x	i	-12	-5	23	0	1	-3
O=C(NC1CCCCCC1)c1cc(=O)[nH]c2ccc(S(=O)(=O)N3CCOCC3)cc12	13	i	4	9	0	x	-1	0

3 neighbouring entries out of the list so far, for reference:
SMILES	CSC inhib	Rce1 inh	eIF4H inh	PABP polyA inh	HIV Env fusion	UUG fidelity	MT1-MMP act inh	MT1-MMP act inh RFP	others
COc1ccc(NC(=O)CSc2n[nH]c(-c3ccccc3)n2)cc1S(N)(=O)=O	x	x	x	x	6	-8	7	4
O=C(CSc1nnc(CNC(=O)c2cccs2)o1)NC1CCCCC1	-13	i	1	6	8	-5	5	2
CC(C)N(C(=O)CSc1nnc(C2CC2)n1C1CC1)c1ccccc1	x	x	x	x	-11	-18	1	3

Next entries follow.
SMILES	CSC inhib	Rce1 inh	eIF4H inh	PABP polyA inh	HIV Env fusion	UUG fidelity	MT1-MMP act inh	MT1-MMP act inh RFP	others
COc1ccc(-n2c(SCC(=O)Nc3ccc([N+](=O)[O-])cc3OC)nc3ccccc32)cc1	40	i	0	3	6	x	2	-5
CCOCCc1nnc(NC(=O)Cc2ccccc2)s1	3	i	0	-4	x	-6	16	7
CC(C)NS(=O)(=O)c1ccc(NC(=O)CCc2ccccc2)cc1	0	i	-3	-2	x	-12	15	4
Cc1cccc(NC(=S)N2CCCN(c3ncccc3[N+](=O)[O-])CC2)c1	-3	i	6	5	17	-31	2	-1
COc1ccc(/C=N/NC(=O)c2ccc(Cl)c(S(N)(=O)=O)c2)cc1OCC(N)=O	-7	i	-5	-9	-9	-14	7	5
